N370S GC mod = inhibits or activates N370S mutant glucocerebrosidase; P04062; N370S GC spleen homogenate, 4MU-glucoside fluorescence; Potency, µM (series often up to 59.4 µM), for inactives: at the top dose activity change, negative = inhibition, actives largely listed as inhibitors; 0.092% of 330,000 active; AID 2101;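 also: 0% = full enzyme activity and -100% = no enzyme basal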
TDP1 block = TDP1 (human) enzyme inhibition | Q9NUW8 | recombinant TDP1, AlphaScreen DNA substrate cleavage | Potency, µM (top dose mostly 130 µM), inactives show at the highest dose activity change, negative = inhibition, actives largely listed as inhibitors | 0.28% of 350,000 active; also: nearly all actives have a fitted effect of over 40% in size
Target sequence (Q9NUW8 whole entry, looked up): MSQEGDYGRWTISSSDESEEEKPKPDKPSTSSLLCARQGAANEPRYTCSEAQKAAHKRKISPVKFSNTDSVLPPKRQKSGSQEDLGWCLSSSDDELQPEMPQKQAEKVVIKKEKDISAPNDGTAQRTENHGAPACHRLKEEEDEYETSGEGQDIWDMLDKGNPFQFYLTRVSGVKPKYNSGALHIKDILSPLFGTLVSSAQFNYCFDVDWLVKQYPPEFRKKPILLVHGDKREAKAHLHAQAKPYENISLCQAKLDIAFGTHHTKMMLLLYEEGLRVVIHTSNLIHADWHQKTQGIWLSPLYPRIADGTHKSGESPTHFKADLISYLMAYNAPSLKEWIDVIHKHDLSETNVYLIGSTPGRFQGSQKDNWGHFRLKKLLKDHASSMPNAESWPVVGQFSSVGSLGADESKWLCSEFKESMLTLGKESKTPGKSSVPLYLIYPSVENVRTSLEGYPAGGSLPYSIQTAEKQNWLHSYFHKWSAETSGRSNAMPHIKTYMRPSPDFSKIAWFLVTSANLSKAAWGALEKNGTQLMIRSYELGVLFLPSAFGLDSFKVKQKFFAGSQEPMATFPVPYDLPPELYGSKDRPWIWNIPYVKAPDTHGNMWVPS
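Enzyme-compound mixtures sat 15 min at room temperature, followed by a 5 min reaction with 15 nM final substrate and 10 min with AlphaScreen beads. Recombinant human Tdp1 was used at 1 nM final.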
* marks the source's active call; other numbers are inactive results; ? = inconclusive; · = no result given; & = joins results of further samples; [ ] = remark or other dose. Calls follow the shape of the dose curve; as a rule, active = well fitted curve in the direction sought with a large enough effect; inconclusive = small, poorly fitted or top-dose-only effect, or another doubt; inactive = no such curve, though single readings can be large; an effect the other way counts as inactive or inconclusive. Unless noted, % is scaled to controls: 0 for no effect and ±100 for the full control effect; potency is read from the fitted curve at half-maximal effect. An excerpt; most or all hits stand in other tables.

Each structure is followed by: N370S GC mod | TDP1 block
> CCOc1ccc(N)cc1OC
 : 1.4% | 5.9%
> Cc1cnc(CN(C)Cc2c(C(=O)N3CCc4ccccc4C3)nc3ccc(Cl)cn23)[nH]1
 : -7.9% | 2.5%
> Cc1ccc(-c2nc(CS(=O)(=O)CC(=O)Nc3cc(F)ccc3F)c(C)o2)cc1
 : -3.6% | ·
> CCOC(=O)COc1ccc(S(=O)(=O)NCc2cccnc2)cc1
 : -3.4% | 9.1%
> COc1ccc(Cl)cc1NC(=O)CSc1nnc(Cn2c(=O)sc3ccccc32)n1C
 : 24.0% | -2.6%
> CC(=O)NCCc1ccc(S(=O)(=O)N2CCN(c3nc(-c4ccccc4)c(C)s3)CC2)cc1
 : -1.3% | ·
> CC(C)n1c(N2CCN(S(=O)(=O)c3cccc([N+](=O)[O-])c3)CC2)nc2ccccc21
 : -20.3% | ·
> CC(C)C(=O)Nc1ccc(NC(=O)c2cccc(F)c2)cn1
 : -11.9%[2.35 µM] | -2.0%
> CCN1CCN(CCCOc2ccc(Cl)cc2Br)CC1
 : 14.7% | 5.1%
> Cc1cccc(C(=O)N[C@H](C(=O)NCc2cccs2)C(C)C)c1
 : · | 2.1%

Complete entries from above:
`CCOc1ccc(N)cc1OC` across the screens: N370S GC mod: 1.4%; TDP1 block: 5.9%
`CCN1CCN(CCCOc2ccc(Cl)cc2Br)CC1` across the screens: N370S GC mod: 14.7%; TDP1 block: 5.1%
`CC(C)C(=O)Nc1ccc(NC(=O)c2cccc(F)c2)cn1` across the screens: N370S GC mod: -11.9%[2.35 µM]; TDP1 block: -2.0%

Continued.
Each structure is followed by: N370S GC mod | TDP1 block
> CC(OC(=O)c1cc(=O)c2ccccc2o1)C(=O)Nc1ccc(N(C)C)cc1 (centres undefined)
 : · | 0.3%
> CCc1ccc(CNc2ncnc3c2nc2n3CCCC2)cc1
 : · | 5.0%
> CC(C)(C)c1ccc(S(=O)(=O)N2CCC(CO)(CC3CCCCO3)CC2)cc1 (centres undefined)
 : 4.0% | 0.0%
> CC(C)C(=O)N1CCN(S(=O)(=O)c2ccc3ccccc3c2)CC1
 : -5.5% | 14.6%
> CCCCn1c(CNC(=O)C23CC4CC(CC(C4)C2)C3)nnc1SC(C)CC (centres undefined)
 : -4.5% | 2.6%
> O=C(CN1C(=O)NC(Cc2ccccc2)C1=O)Nc1ccc(OC(F)F)cc1 (centres undefined)
 : 0.9% | -3.7%
> Cn1ncc(Cl)c1C(=O)N1CCN(c2ccccc2)CC1
 : -2.5% | 1.3%
> O=C(O)/C=C/C(=O)NCc1cn(-c2ccccc2)nc1-c1cccc(Br)c1
 : -1.5% | 0.0%
> COc1cc(C(CC(=O)Nc2ccc(C)cn2)N2Cc3ccccc3C2=O)cc(OC)c1OC (centres undefined)
 : -17.6% | ·
> Cc1oc(-c2cc3c(cc2Cl)OCO3)nc1CN1CCCC(C(=O)N2CCOCC2)C1 (centres undefined)
 : 25.1% | 5.6%
> O=C(NCCOc1cccnc1)C1CCC(=O)N(Cc2ccccc2F)C1 (centres undefined)
 : -2.3% | 3.7%[56.1 µM]
> Cc1cc(C)c2oc(C(=O)NCCc3ccc(S(N)(=O)=O)cc3)cc(=O)c2c1
 : 2.6% | 1.3%&-2.5%
> CCOc1ccc(N=C(C)c2ccccc2O)cc1
 : -5.4% | 5.1%
> CCOc1ccccc1NC(=O)c1ccc(CN2CCc3ccccc3C2)cc1
 : -5.4% | 4.3%
> O=C(C(Cc1ccccc1)n1cccc1)N1CCc2ccccc21 (centres undefined)
 : -10.8% | 10.9%
> Cc1ccc(S(=O)(=O)N2CCC(C(=O)N[C@@H](C)C(=O)Nc3ccc4c(c3)OCO4)CC2)cc1
 : -0.3% | 6.9%
> Cc1ccc(C(O)(CCN2CCCCC2)c2ccccc2)cc1 (centres undefined)
 : -10.6% | ·
> CCc1cccc(C)c1NC(=O)COC(=O)c1ccc2c(c1)S(=O)(=O)c1ccccc1C2=O
 : -0.7% | 5.3%
> Cc1cnc(NC(=O)c2ccc3c(c2)C(=O)N(Cc2ccco2)C3=O)s1
 : -2.8% | 8.8%
> CCCCOC(=O)NC(NCC(O)c1ccccc1)(C(F)(F)F)C(F)(F)F (centres undefined)
 : -2.0% | 1.4%

Given with the structure last: 4 of the compounds above
N370S GC mod	TDP1 block	SMILES
-5.4%	5.1%	CCOc1ccc(N=C(C)c2ccccc2O)cc1
-5.4%	4.3%	CCOc1ccccc1NC(=O)c1ccc(CN2CCc3ccccc3C2)cc1
-10.8%	10.9%	O=C(C(Cc1ccccc1)n1cccc1)N1CCc2ccccc21 (centres undefined)
-0.3%	6.9%	Cc1ccc(S(=O)(=O)N2CCC(C(=O)N[C@@H](C)C(=O)Nc3ccc4c(c3)OCO4)CC2)cc1

The list continues.
Each structure is followed by: N370S GC mod | TDP1 block
> COc1cccc(CNC(=O)CCC2CCCN(c3cc(C)nc(N)n3)C2)c1 (centres undefined)
 : -3.6% | 6.0%
> C=CCNC(=O)c1cc(C(=O)C(C)c2ncc(C(F)(F)F)cc2Cl)c[nH]1 (centres undefined)
 : -2.1% | -0.5%
> O=c1[nH]c(N/N=C/c2ccccc2Br)nnc1-c1ccccc1
 : 18.8% | 5.4%
> Cc1ccc(C(=O)NNC(=O)/C=C\C(=O)O)cc1
 : -5.4% | 0.6%
> CN(C)c1ccnc(-n2cccc2/C=N/OCc2cccc(F)c2)c1C#N
 : -3.7% | -2.2%
> Cc1c(CN2CCC(CO)(CC3CCCCO3)CC2)cnn1C (centres undefined)
 : -0.8% | 3.0%
> O=C(O/N=C(\c1ccccc1)c1ccncc1)c1ccccc1F
 : -6.2% | -4.8%
> CC1CN(C(C)C(=O)NC(c2ccccc2)c2ccccc2)CC(C)O1 (centres undefined)
 : -2.6% | 0.1%
> CCOCC(=O)Nc1ccc(S(=O)(=O)NCC2CCCO2)cc1 (centres undefined)
 : -16.2% | ·
> CCn1cc(S(=O)(=O)CC(=O)Nc2ccc(OC)cc2)c2ccccc21
 : 5.9% | -2.6%
> COC(=O)C(CC(C)C)NC(=O)c1cc(OC)c(OC)c(OC)c1 (centres undefined)
 : ? | -3.1%
> Cn1c(SCc2c(F)cccc2Cl)nc2c(c1=O)SCC2
 : 8.5% | 8.2%
> [O-][n+]1onc2c1CCc1nnccc1-2
 : 2.4% | -7.6%
> CNc1nc2c(c(=O)n(C)c(=O)n2C)n1Cc1ccccc1
 : 3.6% | 4.2%
> CCOC(=O)N1CCN(C(=O)C2CC(c3cc(OC)ccc3OC)=NO2)CC1 (centres undefined)
 : 9.2% | 6.8%
> Cc1ccccc1CSc1nnc(-c2ccncc2)o1
 : -8.0% | 5.1%
> NNC(=O)c1cc2cc(Oc3ccccc3)ccc2[nH]1
 : -4.9% | ·
> COc1ccc(-c2cc3c(=O)n(CC(=O)NCc4ccc(C)cc4)ncn3n2)cc1
 : -1.9% | ·
> O=C(O)c1ccc(/C=N/NC(=S)NCCN2CCOCC2)cc1
 : 3.1% | 5.1%
> C=C(C)c1cccc(C(C)(C)NC(=O)N2CCCC2)c1
 : 10.0% | 2.6%
> NS(=O)(=O)c1ccc(NC(=O)COC(=O)CCc2nc3ccccc3c(=O)[nH]2)cc1
 : · | 0.3%
> COc1ccc(/C(O)=C2/C(=O)C(=O)N(CCCN3CCOCC3)C2c2ccc(C(C)C)cc2)cc1 (centres undefined)
 : -1.2% | ·
> Cc1[nH]nc2c1C(c1cc(Br)cs1)C(C#N)=C(N)O2 (centres undefined)
 : -6.4% | -1.3%
> N#Cc1ccc(N2C(=O)[C@@H]3C(C(=O)c4cnccn4)=NN[C@@H]3C2=O)cc1
 : -21.0% | 7.1%
> O=C(c1ccc(Cl)cc1)N1N=CCC1(O)c1ccc(Cl)cc1 (centres undefined)
 : -2.8% | 3.3%
> CC(C)(C)NC(=O)C(=O)NN=C1CCCCCC1
 : -11.0% | 3.5%
> CN1CCN(C2=Cc3cc(Cl)ccc3Sc3cc(F)ccc32)CC1
 : 15.2% | 0.0%
> C=CCn1c(=O)c2c3c(sc2n2c(Nc4ccc(C(=O)OCC)cc4)nnc12)CCCC3
 : -12.2% | 3.4%
> CCOC(=O)NC(=O)C(=CNc1ccccc1C)C(=O)NC(=O)OCC
 : 1.0% | 2.6%
> O=c1oc2ccccc2n1CCc1ccccc1
 : 1.7% | 8.2%
> Cc1nc2ccccc2c2nc(NC(=O)C(F)(F)F)nn12
 : 7.9% | 3.7%
> Clc1cccc(/C=N/N2CCN(Cc3ccccc3)CC2)c1
 : -5.4% | ·
> O=C1/C(=C\c2ccc(Br)cc2)SC(=S)N1NS(=O)(=O)c1ccccc1
 : 2.1% | 5.0%
> O=C(COC(=O)c1ccc(F)c(S(=O)(=O)N2CCOCC2)c1)Nc1ccc2c(c1)OCO2
 : -18.4% | -1.0%
> Cc1ccc(CNS(=O)(=O)c2ccc3c(c2)n(C)c(=O)n3C)cc1
 : -4.6% | ·
> CCC(C(=O)N1CCOCC1)n1nc(C)n2c(cc3cc(C)ccc32)c1=O (centres undefined)
 : -8.5% | 1.8%
> N#Cc1ccc(C(=O)N(Cc2ccco2)c2c(N)n(Cc3ccccc3)c(=O)[nH]c2=O)cc1
 : · | -0.6%
> NC(=O)NC(=O)COC(=O)c1ccccc1Oc1ccccc1
 : -29.1% | 6.2%
> COc1ccc(NC(=O)C2CCC(CNS(=O)(=O)c3cccs3)CC2)cc1OC (centres undefined)
 : -15.9% | 1.2%&2.5%
> Cc1ccc(N(CC(=O)NC(C)c2ccccc2)S(=O)(=O)c2cccs2)cc1 (centres undefined)
 : 2.7% | 0.0%
> CCCc1nnc(SCC(=O)N2CCCC2)n1Cc1ccco1
 : 5.1% | -10.1%
> CSCCC(NC(=O)COc1ccccc1)C(=O)N1CCCC(C)C1 (centres undefined)
 : -9.2% | 4.4%
> Cc1ccc(N2C(=O)CC(C)(C)CC2=O)cc1Cl
 : -4.0% | ·
> C/C(=N\NC(=O)c1ccc(NS(=O)(=O)c2cccs2)cc1)c1ccc(O)cc1O
 : -19.6% | 2.6%
> O=C(Nc1ccccc1C(=O)O)c1cccc(N2C(=O)c3ccccc3C2=O)c1
 : -4.5% | 11.1%
> Cc1ccc(S(=O)(=O)N(C)CC(=O)N2CCN(C(=O)c3ccco3)CC2)cc1
 : -5.3% | 1.0%
> O=c1cc(O)cc(/C=C/c2ccc(O)c(O)c2)o1
 : -4.0% | ·
> O=C(Nc1ccc(Cl)c(Cl)c1)OCCNC(=O)c1cccc(Cl)c1
 : -2.1% | 4.7%
> COC(=O)C1=C(C)N(Cc2ccco2)C(=O)C1
 : 1.6% | 4.5%
> Cc1ccc2c(c1)N(CC(=O)Nc1ccccc1F)C(=O)CO2
 : -13.8% | ·

(cont.)
Each structure is followed by: N370S GC mod | TDP1 block
> CC1(C)CC(c2nc(-c3ccc(Cl)cc3)cs2)CCS1 (centres undefined)
 : 8.4% | -9.8%
> COc1ccc(NC(=O)NCCCN2CCCCC2C)cc1 (centres undefined)
 : ? | 3.1%
> COc1ccc(N(CC(=O)NCCSc2ccccn2)S(C)(=O)=O)cc1
 : 3.0% | 1.1%
> CCCCNC(=O)CSc1nccn1Cc1ccccc1
 : 10.0% | 4.8%
> O=C(O)c1cncc(C#CCC2CCCCC2)c1
 : 11.0% | -5.5%
> CNC(=O)c1cccc(NC(=O)C(C)c2ccc3cc(OC)ccc3c2)c1 (centres undefined)
 : -18.1% | ·
> COc1ccccc1CN1CCN(Cc2ccco2)CC1
 : -13.5% | ·
> COc1ccc(COCC(O)CN2CCCCC2)cc1OC (centres undefined)
 : 3.0% | 0.6%
> CC(NC(=O)Nc1ccccc1F)C(C)(C)C (centres undefined)
 : 14.9% | -3.5%
> CCCN1CCC(NC(=O)Nc2ccc(OC)c(OC)c2)CC1
 : 0.1% | -2.3%
> O=C(Cn1cccc1C(=O)c1ccccc1)NCc1ccccn1
 : 2.1% | 4.1%
> CCCc1[nH]n(-c2nc3ccccc3s2)c(=O)c1C=NCCCOC
 : 3.3% | ·
> CC(Oc1ccc(Cl)cc1Cl)C(=O)Nc1ccc(S(=O)(=O)Nc2cnc3ccccc3n2)cc1 (centres undefined)
 : -4.2% | 6.6%
> Cc1cc(C)c(C(=O)C[n+]2cccc(C(N)=O)c2)c(C)c1
 : 1.4% | 1.2%
> O=C(Nc1ccccc1Cl)C(=O)c1cn(CC(=O)N2CCOCC2)c2ccccc12
 : -1.0% | 0.1%
> COc1cc(CN2CCN(Cc3ccc(C)cc3)CC2)c([N+](=O)[O-])cc1OC
 : 4.4% | ·
> CCN1C(=O)c2ccccc2S(=O)c2ccc(C(=O)NCc3ccc(F)cc3)cc21 (centres undefined)
 : · | -2.3%
> Oc1cccc(C(=S)N2CCN(Cc3ccccc3)CC2)c1
 : -1.5% | 4.2%
> CNC(=O)CSc1nnc(-c2ccco2)n1-c1ccccc1OC
 : 5.4% | -13.8%
> Cc1ccccc1Nc1nc(N)nc(CCl)n1
 : -0.8% | 6.8%
> CCc1nnc(NC(=O)CSc2nnc(-c3ccccc3O)n2-c2ccc(C)cc2C)s1
 : -8.1% | 5.1%
> COc1ccc(NC(=O)C2CCN(C(=O)c3ccc(OC)cc3)CC2)cc1
 : 28.9% | 9.8%
> CC1(C)CC(=O)C2=C(C1)N(c1ccc(Cl)cc1)C(=O)C2(O)C(F)(F)F (centres undefined)
 : 5.2% | -1.1%
> O=C(COc1ccccc1)Nc1cccc2nsnc12
 : 13.6% | 2.1%

Source: PubChem BioAssay
